Cruzain noTriton – inhibitors of Trypanosoma cruzi cruzain without detergent. purified cruzain, Z-FR-AMC fluorescence, no detergent. P25779. AID 1476. 2.3% of 200,000 active. Potency, µM, without a hit: max response, negative = inhibition, usual class: inhibitors;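 also: plate controls were enzyme without inhibitor for no effect and buffer without enzyme for full effect; nearly all actives have a fitted effect of over 40% in size; top concentration of the series not given in the record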
Target sequence (P25779 123-467 limits assumed): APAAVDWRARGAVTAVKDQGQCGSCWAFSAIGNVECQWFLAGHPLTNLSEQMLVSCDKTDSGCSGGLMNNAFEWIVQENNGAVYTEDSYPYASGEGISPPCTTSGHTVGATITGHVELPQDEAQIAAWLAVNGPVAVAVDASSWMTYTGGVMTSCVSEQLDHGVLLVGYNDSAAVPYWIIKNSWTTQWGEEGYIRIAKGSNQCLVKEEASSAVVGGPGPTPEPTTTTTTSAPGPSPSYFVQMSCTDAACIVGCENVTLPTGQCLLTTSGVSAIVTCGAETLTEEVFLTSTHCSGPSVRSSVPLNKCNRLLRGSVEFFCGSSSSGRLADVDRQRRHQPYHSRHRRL
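Detergent-free condition (0.00005% Triton X-100) in acetate buffer pH 5.5 with DTT. 1.5 nM enzyme and compound were pre-mixed 15 min, then 2 uM Z-FR-AMC substrate added; reaction progress from fluorescence change between first and third reads (60 s).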
RE007 growth inh – less growth of the S. pombe RE007 Vpr strain; 0.21% of 360,000 active; Potency, µM (top dose mostly 92.2 µM), for the others: at the top dose activity change, negative = less growth; AID 651644; S. pombe RE007 Vpr strain, BacTiter-Glo ATP luminescence, 24 h; control for the full effect not named in the record; active = well fitted falling curve with a large enough effect; inconclusive = small, poorly fitted or top-dose-only effect; inactive = no such curve, though single readings can be large or run the other way;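 also: % is scaled to controls: 0 for no effect and ±100 for the full control effect; nearly all actives have a fitted effect of over 50% in size; the assay follows cell death caused by Vpr and the record does not say whether a fall means rescue or toxicity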
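Fission yeast strain RE007, carrying one chromosomally integrated HIV-1 vpr copy, was seeded at OD 0.01 in PMG+AL medium with 23 nL pinned compound. After 24 h at 30 °C and 99% humidity, viability was read by BacTiter-Glo luminescence.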
MARV entry inh – inhibitors of Marburg virus binding or cell entry | Potency, µM (doses to about 37.8 µM), inactives show top-dose activity change, negative = inhibition, actives largely listed as inhibitors | Marburg virus pseudotyped entry inhibition, cell reporter; control for the full effect not named in the record; about a third of the inactives were read at about 46 µM | 1.8% of 300,000 active | AID 540276; active = well fitted inhibition curve with a large enough effect; inconclusive = small, poorly fitted or top-dose-only effect, or effect the other way; inactive = flat fitted curve, though single readings scatter; tested in HEK293 cells; about a fifth of its hits are not listed in these tables; also: % is scaled to controls: 0 for no effect and ±100 for the full control effect; luciferase read-out
NS1 function inh – inhibitors of influenza NS1 protein function; S. cerevisiae slowed by influenza A NS1, growth recovery by OD600; 0.4% of 270,000 active; Potency, µM (series often up to 46.1 µM), without a hit: at the highest dose activity, positive = more growth; AID 2326; active means well fitted rising curve with a large enough effect; inconclusive means small, poorly fitted or top-dose-only effect; inactive means no such curve, though single readings can be large or run the other way; also: nearly all actives have a fitted effect of over 50% in size
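OD600 was taken as the measure of yeast growth restored by compound in an NS1-expressing S. cerevisiae strain. Cells had been washed out of glucose medium and diluted 1:100 into galactose -URA medium, pH 6.0.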
SARS PLpro yeast – SARS-CoV PLP inhibition in yeast | S. cerevisiae expressing SARS-CoV PLpro, growth rescue; control for the full effect not named in the record | Potency, µM (titrated, usually from 32.9 µM), for inactives: at the top dose activity, positive = growth rescue | 0.19% of 330,000 active | AID 485353; active means well fitted rising curve with a large enough effect; inconclusive means small, poorly fitted or top-dose-only effect; inactive means no such curve, though single readings can be large or run the other way; also: 0% is about no effect; nearly all actives have a fitted effect of over 55% in size; growth read by luminescence after 48 h
LASV entry inh – blocks Lassa virus binding to or entry into cells; Potency, µM (highest dose often 37.9 µM), inactives show top-dose activity change, negative = inhibition, hits mostly inhibitors; 1.2% of 300,000 active; Lassa virus pseudotype entry inhibition, cell reporter; control for the full effect not named in the record; active means well fitted inhibition curve with a large enough effect; inconclusive means small, poorly fitted or top-dose-only effect, or effect the other way; inactive means flat fitted curve, though single readings scatter; tested in HEK293 cells; also: % is scaled to controls: 0 for no effect and ±100 for the full control effect; nearly all actives have a fitted effect of over 50% in size; luciferase read-out
Cruzain Triton – cruzain (T. cruzi) inhibition with detergent; P25779; purified cruzain, Z-FR-AMC fluorescence, 0.01% Triton; Potency, µM, for inactives: max response, negative = inhibition, hits mostly inhibitors; 0.43% of 200,000 active;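 also: plate controls were neutral wells for no effect and buffer without enzyme for full effect; nearly all actives have a fitted effect of over 40% in size; top concentration of the series not given in the record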
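Compounds were screened in titration against cruzain (1.5 nM) with 0.01% Triton X-100 to counter colloidal aggregation. Activity was the AMC fluorescence increase over 60 s after adding 2 uM Z-FR-AMC at pH 5.5.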
StopGo reporter – lowers the luciferase signal of an FMDV 2A StopGo reporter. human cells with a luciferase reporter of 2A StopGo recoding; control for the full effect not named in the record. AID 1159524. Potency, µM (doses to about 57.9 µM), for inactives: at the top dose signal change, negative = less light. 1.2% of 410,000 active; active = well fitted falling curve with a large enough effect; inconclusive = small, poorly fitted or top-dose-only effect; inactive = no such curve, though single readings can be large or run the other way; tested in HEK293T cells; also: % is scaled to controls: 0 for no effect and ±100 for the full control effect; nearly all actives have a fitted effect of over 45% in size; luciferase light after 4 h
Starred values were filed as active, the others as inactive; ? = inconclusive; . = not tested or not shown; & = joins results of further samples; [ ] = remark or other dose. Unless noted, calls follow the shape of the dose curve; as a rule, active = well fitted curve in the direction sought with a large enough effect; inconclusive = small, poorly fitted or top-dose-only effect, or another doubt; inactive = no such curve, though single readings can be large; an effect the other way counts as inactive or inconclusive. Potency is read from the fitted curve at half-maximal effect.

SMILES	Cruzain noTriton	RE007 growth inh	MARV entry inh	NS1 function inh	SARS PLpro yeast	LASV entry inh	Cruzain Triton	StopGo reporter
CC(=O)Nc1ccc(N2C(=O)C3C4CC(=O)C(c5ccccc54)C3C2=O)cc1 (configuration not stated)	0%	31%	-5%	-2%	3%	5%	8.5%	-13%
COCCN(C(=O)CCCC(=O)Nc1ccccn1)C(C(=O)NC1CCCCC1)c1ccc(C)cc1 (configuration not stated)	?	-7%	-24%&-24%	-8%	4%	-6%	1.0%	19%
COc1ccccc1CNC(=O)COC(=O)C1CCN(S(=O)(=O)c2ccc(C)c(C)c2)CC1	.	12%	10%	.	5%	4%	.	-12%
Cc1cccc(-c2cc3nc4c(c(N5CCCC(O)C5)n3n2)CCC4)c1 (configuration not stated)	?	7%	?	-238%	-45%	?	-20%	.
Cn1c(=O)oc2cc(S(=O)(=O)N3CCC(C(=O)N4CCN(c5ccc(F)cc5)CC4)CC3)ccc21	.	-6%	.	-9%	-3%	.	.	-28%
Cc1ccc(N=Nc2c(O)ccc3n[nH]nc23)cc1	.	?	.	-86%	-3%	.	.	-7%
Cc1cc(C)nc(-n2nc(C)c3c2NC(=O)CC3c2ccccc2OC(C)C)n1 (configuration not stated)	20%	.	-23%[46.1 µM]	.	.	-3%[46.1 µM]	-1.5%	-30%
CCOc1ccccc1N(CC(=O)NC1CCCCC1)S(C)(=O)=O	15%	-7%	-11%	2%	8%	-14%	4.4%	-9%
COc1ccc(C(=O)COC(=O)c2cccc(NC(=O)c3ccc(OC)c(OC)c3)c2)cc1	?	.	-25%[46.1 µM]	.	.	?	-2.7%	-6%
CS(=O)(=O)c1ccc(Cl)c(NC(=O)COc2ccc3c(c2)CCC3)c1	.	-11%	-11%	.	-10%	-18%	.	-15%
O=C1CCc2ccccc2N1	.	-9%	11%[46.1 µM]	1%	0%	1%[46.1 µM]	.	-1%
CCN(C(=O)c1cc2c(=O)oc3ccccc3c2s1)c1ccc(C)c(C)c1	-6%	.	11%[46.1 µM]	.	.	22%[46.1 µM]	0.4%	-15%
C/C(=N\Nc1nc(N2CCCCC2)nc(N2CCOCC2)n1)c1ccccc1O	.	6%	1.8µM*	4%	-1%	7.1µM*	.	?
CC1Sc2ccc(S(=O)(=O)CCC(=O)N3CCN(c4ccccc4F)CC3)cc2NC1=O (configuration not stated)	.	6%	?	9%	16%	?	.	?
O=C(O)C(NS(=O)(=O)c1cccc2nsnc12)c1ccccc1 (configuration not stated)	.	0%	.	3%	-1%	.	.	-10%
O=C(NCc1csc2ccc(Cl)cc12)Nc1cccc2ccccc12	.	5%	?	-1%	-1%	-10%	.	1%
O=C1C2C3C=CC(C3=C(c3ccccc3)c3ccccc3)C2C(=O)N1CCO (configuration not stated)	?	20%	2%	-121%	-2%	?	-8.4%	?
CCOCCCN(CCC#N)C(=O)C1CCN(S(=O)(=O)c2ccc(-n3cnnn3)cc2)CC1	.	2%	-4%[46.1 µM]	11%	1%	11%	.	-8%
O=C(Nc1cccc(NC(=O)c2ccc(-c3ccc(Br)cc3)o2)c1)c1ccccc1	5µM*	2%	?	2%	9%	-1%	-12%	-10%
O=[N+]([O-])c1ccc(OCCOCCOc2ccc([N+](=O)[O-])cc2)cc1	.	-2%	.	-2%	5%	.	.	?
O=C(Cc1ccccc1)N(Cc1cccnc1)c1nc2ccc(Cl)cc2s1	-8%	.	.	.	.	-17%[46.1 µM]	-7.8%	-6%
COc1ccccc1-n1c(SCC(=O)N2CCCCC2)nc(O)c(Cc2ccccc2)c1=O	.	-1%	.	3%	3%	.	.	-15%
O=C(NCCSc1ccccc1)c1cccnc1	-2%	8%	?	-1%	11%	18%	3.6%	0%
COc1ccc(C2(CNS(=O)(=O)c3ccc(C)cc3)CCOCC2)cc1	.	0%	10%[46.1 µM]	-6%	4%	4%	.	1%
C/C(=N\NC(=O)CCCNc1ccc(C)cc1)c1ccccn1	8%	1%	6.5µM*	-20%	?	-20%	0.3%	-28%
Cc1ccc(Nc2nc(-c3cccs3)cs2)nc1	.	?	.	5%	-1%	.	.	-90%
O=C(c1cccc(F)c1)N1CCN(S(=O)(=O)c2ccccc2)CC1	12%	8%	1%	?	2%	1%	3.0%	-7%
COc1cc(C(=S)N2CCOCC2)ccc1OC(=O)c1cc([N+](=O)[O-])cc([N+](=O)[O-])c1	-6%	.	27%	0%	-2%	14%	-11%	-8%
CCc1ccc(CC2S/C(=C(\C#N)C(C)=O)NC2=O)cc1 (configuration not stated)	-1%	10%	?	-4%	-25%	5.8µM*	-9.3%	26%
O=S(=O)(NC1CCCCC1Sc1ncccn1)c1ccccc1 (configuration not stated)	4%	10%	?	12%	-14%	6%	-1.4%	-21%
O=S(=O)(NCc1ccco1)c1cnc(Cl)c(Cl)c1	.	0%	.	1%	2%	.	.	5%
O=C(CCN1CCCCC1)Nn1c(=S)[nH]c2ccccc2c1=O	-4%	-5%	?	-3%	6%	13%	1.5%	0%
O=C(O)C1Cc2ccccc2N2CCCC12 (configuration not stated)	.	-4%	-1%[46.1 µM]	1%	1%	10%[46.1 µM]	.	-8%
CCc1ccc2c(Cl)c(C(=O)N/N=C/c3c[nH]c4ccccc34)sc2c1	-11%	4%	?	-31%	-12%	10µM*	-2.4%	-5%
O=c1sc2ccccc2c(N2CCCC2)c1[N+](=O)[O-]	.	8%	4%[46.1 µM]	-1%	1%	0%[46.1 µM]	.	30%[activator]
Cc1c(C(N)=O)nnn1-c1ccc(Br)cc1	2%	.	-10%[46.1 µM]	.	.	2%[46.1 µM]	-2.3%	-10%
Cc1ccc(S(=O)(=O)CCSc2n[nH]c(=O)n2-c2ccc3c(c2)OCCO3)cc1	.	3%	.	-4%	-1%	.	.	-24%
COc1ccc(-c2cc(C(F)(F)F)nc(SCC(=O)Nc3cc(C)on3)n2)cc1	-6%	8%	?	4%	-14%	-24%	-3.6%	-5%
O=C(CNC(=S)N(CCCN1CCOCC1)Cc1cccs1)N1CCCC1	.	1%	9%[46.1 µM]	-5%	3%	.	.	17%
CCOC(=O)NC(NCc1ccccc1Cl)(C(F)(F)F)C(F)(F)F	3%	7%	30%	4%	6%	27%	-2.6%	9%
CCC(Oc1ccccc1)C(=O)Nc1cc(-c2cccc(C)c2)nn1-c1ccccc1 (configuration not stated)	-19%	.	.	.	.	2%[46.1 µM]	-0.1%	-12%
O=C(NCCCn1ccnc1)C(=O)NCC1OCCN1S(=O)(=O)c1ccc(F)cc1 (configuration not stated)	3%	-2%	-19%	10%	-3%	16%	0.2%	-26%
CC1(C)CC(=NOC(=O)c2ccccc2)CC(C)(C)N1O	-9%	31%	2%	-3%	3%	-6%	-2.5%	-23%
Cn1c(CCCNC(=O)c2ccco2)nc2ccccc21	.	4%	-2%[46.1 µM]	.	.	3%	.	-7%
O=C1CSC(=S)N1N=Cc1ccccc1O	.	0%	-1%	.	.	2%	.	10%
COc1cccc2cc(-c3nc4sc5c(c4c(=O)[nH]3)CCC(C(C)(C)C)C5)c(=O)oc12 (configuration not stated)	-5%	.	.	.	.	1%[46.1 µM]	-0.5%	1%
N#Cc1nc(COc2ccccc2Cl)oc1NCc1ccc(F)cc1	-5%	-9%	?	-7%	7%	-13%	-3.3%	-19%
Cc1ccc(/C=N/N2CCN(c3ccccc3)CC2)cc1	.	-4%	18%[46.1 µM]	.	0%	12%	.	0%
COCCn1ccc2c(OCC(=O)NCCc3ccccc3)cccc2c1=O	.	-14%	-18%[46.1 µM]	.	0%	?	.	32%[activator]
CCOC(=O)c1c(Nc2ccccc2OCCOC)n[nH]c1C	.	0%	.	-10%	-2%	.	.	-15%
Continued:
SMILES	Cruzain noTriton	RE007 growth inh	MARV entry inh	NS1 function inh	SARS PLpro yeast	LASV entry inh	Cruzain Triton	StopGo reporter
O=C(CCn1nnc2ccccc2c1=O)N[C@H](C(=O)O)c1ccccc1	-11%	20%	24%	14%	0%	4%	4.5%	5%
O=C(NN1CC(C(=O)OCc2ccc(Br)cc2)CC1=O)c1ccccc1 (configuration not stated)	.	0%	.	-10%	4%	.	.	-3%
c1ccc(NCCSc2nc3ccccc3s2)cc1	-9%	-13%	-8%	-8%	.	0%[46.1 µM]	-7.7%	36%[activator]
CCSc1nc2sc3c(c2c(=O)[nH]1)CC(C)(CC)OC3 (configuration not stated)	?	3%	0%	8%	1%	26%	3.2%	-20%

Full records from above. Values in the order: Cruzain noTriton	RE007 growth inh	MARV entry inh	NS1 function inh	SARS PLpro yeast	LASV entry inh	Cruzain Triton	StopGo reporter
CCSc1nc2sc3c(c2c(=O)[nH]1)CC(C)(CC)OC3 (configuration not stated) as listed: ?	3%	0%	8%	1%	26%	3.2%	-20%
c1ccc(NCCSc2nc3ccccc3s2)cc1 as listed: -9%	-13%	-8%	-8%	.	0%[46.1 µM]	-7.7%	36%[activator]

Of the compounds above, these contain fluorine.
SMILES	Cruzain noTriton	RE007 growth inh	MARV entry inh	NS1 function inh	SARS PLpro yeast	LASV entry inh	Cruzain Triton	StopGo reporter
Cn1c(=O)oc2cc(S(=O)(=O)N3CCC(C(=O)N4CCN(c5ccc(F)cc5)CC4)CC3)ccc21	.	-6%	.	-9%	-3%	.	.	-28%
CC1Sc2ccc(S(=O)(=O)CCC(=O)N3CCN(c4ccccc4F)CC3)cc2NC1=O (configuration not stated)	.	6%	?	9%	16%	?	.	?
O=C(c1cccc(F)c1)N1CCN(S(=O)(=O)c2ccccc2)CC1	12%	8%	1%	?	2%	1%	3.0%	-7%
COc1ccc(-c2cc(C(F)(F)F)nc(SCC(=O)Nc3cc(C)on3)n2)cc1	-6%	8%	?	4%	-14%	-24%	-3.6%	-5%
CCOC(=O)NC(NCc1ccccc1Cl)(C(F)(F)F)C(F)(F)F	3%	7%	30%	4%	6%	27%	-2.6%	9%
O=C(NCCCn1ccnc1)C(=O)NCC1OCCN1S(=O)(=O)c1ccc(F)cc1 (configuration not stated)	3%	-2%	-19%	10%	-3%	16%	0.2%	-26%
N#Cc1nc(COc2ccccc2Cl)oc1NCc1ccc(F)cc1	-5%	-9%	?	-7%	7%	-13%	-3.3%	-19%

Compound activity as filed in PubChem.

Hits appear at their usual frequency, and some 4.7% of all compounds hit somewhere here.
